CSC inhib = cancer stem cell viability inhibitors, primary screen, luminescence. cancer stem cell-like cells viability. inhibition, % at 7.5 µM. 1.1% of 300,000 active;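 active = mean at 75% or more and at least half the replicates too; inconclusive = mean and replicates disagree; tested in HMLE shEcad cells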;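 also: 0% = median of negative and 100% = median of positive control wells; the first replicate is given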
Yeast UUG start = modulators of yeast start codon fidelity, primary screen, whole organism, S. cerevisiae, single point, plate reader; S. cerevisiae UUG-firefly luciferase reporter, luminescence/redox ratio; activity score, % at 18.7 µM; 0.13% of 350,000 active; AID 602363, 2012;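 active = replicate mean at a twofold rise or more, about +100% in these data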;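 also: firefly luciferase made from a UUG start codon reports start codon fidelity; reporter light over untreated wells divided by growth signal over untreated wells; some hits fall short of that in this replicate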
PABP FP inh = PABP poly(A) RNA binding inhibitors, primary screen, biochemical, fluorescence polarization, uHTS | inhibition, % at 35 µM | 1% of 290,000 active | AID 2014, 2009;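 active = 50% or more with normal probe brightness, or confirmed in later tests; inconclusive = above 50% with abnormal brightness, or retests that disagree; inactive = below 50% or failed in later tests; about a fifth of its hits are not listed in these tables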;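 also: calls also rest on retests at 20 µM and on dose response follow-up; controls were probe without protein and protein plus probe with vehicle; some compounds called inactive have numbers as strong as hits; many hits fall short of the cut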
HIV Env fusion = inhibitors of HIV-1 Env-driven cell-cell fusion, primary screen, HeLa-JRFL effector, CEM21 target cells, luciferase | inhibition, % at 12.3 µM | 1.1% of 360,000 active;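 active = mean replicate inhibition score of at least 50 and every replicate individually at or above 50; inconclusive = only one of the two criteria met; inactive = mean below 50 and not all replicates reaching 50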;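 also: 0% = plate neutral controls and 100% = maraviroc near 300 nM; one replicate is shown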
Rce1 inhib = yeast Rce1p protease inhibitors, primary screen, biochemical, fluorescence, cell-free homogeneous | CAAX prenyl protease 2 (Saccharomyces cerevisiae (strain ATCC 204508 / S288c)), Q03530 | yeast membranes, quenched prenylated peptide cleavage fluorescence | calls only | 0.27% of 290,000 active | AID 2563, 2010;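 active = fall in fluorescence gain of 50% or more versus controls, with final raw signal at or below 3038400; inconclusive = same 50% fall but final raw signal above 3038400; inactive = fall in fluorescence gain under 50%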;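 also: plate controls were neutral control wells for no effect and wells lacking membranes for full effect; tested at 10 µM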
Target sequence (Q03530 whole entry, looked up): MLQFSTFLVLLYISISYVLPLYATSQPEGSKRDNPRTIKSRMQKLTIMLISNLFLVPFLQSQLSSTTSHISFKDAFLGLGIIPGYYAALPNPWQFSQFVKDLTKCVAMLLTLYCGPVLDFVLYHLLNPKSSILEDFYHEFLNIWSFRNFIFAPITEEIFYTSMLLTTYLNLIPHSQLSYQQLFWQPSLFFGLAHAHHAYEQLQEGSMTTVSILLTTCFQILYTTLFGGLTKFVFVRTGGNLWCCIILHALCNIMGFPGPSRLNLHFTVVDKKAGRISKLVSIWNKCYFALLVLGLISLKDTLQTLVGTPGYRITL
MT1-MMP act inh = blockers of MT1-MMP proenzyme processing, primary screen, HT1080 RFP-PRO-GFP cells, GFP/RFP fluorescence | Matrix metalloproteinase-14 (Homo sapiens), P50281 | GFP/RFP ratio fluorescence, overnight; percent of plate control window, DMSO zero | GFP/RFP ratio change, % at 20 µM | 0.061% of 360,000 active | AID 651647, 2012;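 active = GFP/RFP ratio change of at least 30% with cell ATP level not reduced by more than half and red fluorescence within 50% of control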; also: strong numbers were not always called active
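Assay system: HT1080 RFP-PRO-GFP cells | Dosing: 20 µM single dose, 1% DMSO | Incubation: Cells overnight before dosing, compound overnight, 37 °C, 5% CO2 | Evaluation: GFP/RFP fluorescence ratio | Control set: DMSO-only wells and HT1080 RFP-L50D-GFP cell wells as references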
eIF4H inh = human eIF4H binding inhibitors, primary screen, translation initiation inhibitor project, biochemical, uHTS, fluorescence polarization | Eukaryotic translation initiation factor 4H (Homo sapiens), Q15056 | eIF4H fluorescence polarization binding assay | inhibition, % at 35 µM | 0.94% of 290,000 active | AID 2012, 2009;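 active = 50% or more with normal probe brightness, or confirmed in later tests; inconclusive = above 50% with abnormal brightness, or retests that disagree; inactive = below 50% or failed in later tests; about a fifth of its hits are not listed in these tables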;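 also: calls also rest on retests at 20 µM and on dose response follow-up; 0% = protein and probe with vehicle and 100% = probe without protein; strong numbers were not always called active; many hits fall short of the cut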
MT1-MMP act inh RFP = also measured in MT1-MMP act inh; calls as there; RFP signal change, %; measured here: RFP expression control read;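 0 = vehicle wells; hits needed this value within 50% of zero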
Numbers without * were called inactive; i = inactive; ? = inconclusive; / = no result given; & = joins results of further samples.

SMILES	CSC inhib	Yeast UUG start	PABP FP inh	HIV Env fusion	Rce1 inhib	MT1-MMP act inh	MT1-MMP act inh RFP	eIF4H inh
COc1cccc(CCC(=O)N(C)C2CCCN(Cc3ccccc3F)C2)c1 (stereo unspecified)	-1	-1	10	-3	i	3	-1	-10
O=C1CC[C@H](O)CCN1CCSc1ccc(Br)cc1	7	-11	/	-16	/	8	2	/
Cc1c(NS(=O)(=O)c2ccc(N(C)C3CCCCC3)c([N+](=O)[O-])c2)c(=O)n(-c2ccccc2)n1C	18	-4	7	23	i	-1	-4	-2
Cc1ccc(N(CC(=O)NC2CCCCC2)C(=O)CCCC(=O)Nc2ccccn2)cc1	/	-5	69*	24	i	-3	0	79*
COC(=O)c1cc(NC(=O)CC2Oc3ccccc3NC2=O)cc(C(=O)OC)c1 (stereo unspecified)	-27	-12	-4	-9	i	4	3	-8
COc1cc(/C=C/C(=O)OCC(=O)c2ccc[nH]2)cc(OC)c1OC	-9	7	/	/	/	6	3	/
COc1cccc2sc(N(CCCN(C)C)C(=O)CCS(=O)(=O)c3ccccc3)nc12	42	-7	7	-24	i	-3	-2	15
CCOC(=O)c1c(NC(=O)CSc2nc3c(c(=O)n(C)c(=O)n3C)n2C(C)C)sc(C)c1C	-12	-6	-11	5	i	22	-1	0
C#CCOCCOCCOCCNc1nc(N2CCN(C(=O)CCCCCCCCCCNC(=O)Cn3cc(C[C@@H](C)O)nn3)CC2)nc(N2CCN(C(=O)CCCCCCCCCCNC(=O)[C@H](CCCCN)n3cc(CCCC(=O)O)nn3)CC2)n1	16	-7	/	7	/	5	7	/
C[C@H](CO)N1C[C@H](C)[C@@H](CN(C)S(=O)(=O)c2ccc(F)cc2)OCc2cn(nn2)CCCC1=O	/	-21&-6	/	16	/	-1	5	/
CC(C)CNc1ncnc2c1ncn2[C@H]1CN(Cc2ccncc2)C[C@@H](CO)O1	/	-17	/	-3	/	0	1	/
CCC1CCc2c(sc(NC(=O)c3ccco3)c2C(N)=O)C1 (stereo unspecified)	-1	-14	-4	-143	i	7	2	-10

Record cards, as listed above. Screens in order: CSC inhib, Yeast UUG start, PABP FP inh, HIV Env fusion, Rce1 inhib, MT1-MMP act inh, MT1-MMP act inh RFP, eIF4H inh
Profile of CCOC(=O)c1c(NC(=O)CSc2nc3c(c(=O)n(C)c(=O)n3C)n2C(C)C)sc(C)c1C : -12, -6, -11, 5, i, 22, -1, 0
Profile of COc1cccc(CCC(=O)N(C)C2CCCN(Cc3ccccc3F)C2)c1 (stereo unspecified) : -1, -1, 10, -3, i, 3, -1, -10

Next entries:
SMILES	CSC inhib	Yeast UUG start	PABP FP inh	HIV Env fusion	Rce1 inhib	MT1-MMP act inh	MT1-MMP act inh RFP	eIF4H inh
COc1ccc2c(CC(=O)N3CCc4cc(OC)c(OC)cc4C3)coc2c1	7	-6	6	-7	i	-1	0	9
CCc1nc(SCC(=O)Nc2ccc(N(C)C)cc2)c2ccccc2n1	45	-13	-19	-4	i	-8	-4	-5
Cc1ccc(NC(=O)CCC(=O)N/N=C/c2ccc(O)cc2O)cc1	27	-14	-5	16	i	-1	-1	19
COc1cc(OC)c(OC)cc1/C=N/n1c(C)nc2ccccc2c1=O	-7	-4	9	3	i	4	8	-12
COc1ccc(NC(=S)N(CCCN2CCOCC2)C(C)c2cc3cccc(OC)c3o2)cc1 (stereo unspecified)	-12	-8	-3	-30	i	1	-1	8
CSc1nc2ccc(NC(=O)NC(=O)c3c(F)cccc3F)cc2s1	-4	/	-5	-34	i	-2	0	-6
O=C(O)CCC(=O)Nc1ccc(Br)cc1C(=O)c1ccc(Cl)cc1	3	-5	6	6	i	-4	2	5
O=C(CN1CCN(Cc2ccccc2)CC1)c1ccc(Br)cc1	/	6	6	/	/	0	5	5
Cc1cc(NC(=O)c2ccc(Cl)c([N+](=O)[O-])c2)no1	-4	-23	8	11	i	-2	-3	7
CCOC(=O)N1CCC(n2c(=S)[nH]c3cc(OC)c(OC)cc3c2=O)CC1	-21	-18	0	-47	i	2	-5	-4
N/C(CSc1ncccc1C(F)(F)F)=N\O	-14	/	-9	-14	i	0	3	7
CC(C)(C)c1ccc(CNc2cc(N3CCOCC3)ccc2[N+](=O)[O-])cc1	22	-17	-5	/	i	7	-15	-8
CCCCNC(=O)C1Cc2cc(S(=O)(=O)N3CCCCC3)ccc2N1C(C)=O (stereo unspecified)	-6	4	13	-2	i	2	2	10
COc1ccc(NC(=S)Nc2ccc3cn[nH]c3c2)cc1	18	/	5	-23	i	3	1	-1
Cc1ccc(N2C(=O)C3C4C=CC(CC4)C3C2=O)cc1[N+](=O)[O-] (stereo unspecified)	-8	-6	-11	6	i	-1	-2	-11
CC(CCc1ccc(O)cc1)N1CCC(Oc2ccc(C(=O)N3CCCC3)cc2)CC1 (stereo unspecified)	15	1	-4	-1	i	0	3	3
Nc1ccccc1OCCOCCOCCOc1ccccc1N	5	-10	2	-12	i	-1	2	-4
Nc1cc(OC(=O)c2ccc(F)cc2)nn1S(=O)(=O)c1ccc(F)cc1	10	-8	0	5	i	-3	-3	1
CC(NS(=O)(=O)c1ccc(OCC(=O)NCc2cccnc2)cc1)c1ccccc1 (stereo unspecified)	-8	-10	6	6	i	4	-1	-1
COCCCn1c(=O)/c(=C\c2ccc(OC(F)F)c(OC)c2)s/c1=C(/C#N)C(N)=O	11	/	?	-12	i	-39	-5	?
C=CCNC(=S)N1CCN(CCN=CC2=C(O)CC(c3ccco3)CC2=O)CC1 (stereo unspecified)	/	/	20	-12	i	-2	0	4
Cc1ccc(C)c(OCCC(=O)Nc2cccc(S(=O)(=O)NC3=NCCCCC3)c2)c1	-17	0	/	10	/	7	-9	/
O=C(NCc1ccccc1)NC(=O)c1ccccc1	-1	-21	-16	/	i	-4	3	-5
COc1ccc(S(=O)(=O)N2CN3CCN(C3)C2)cc1OC	0	-23	4	4	i	3	3	-7
O=C(OCc1c(Cl)cccc1Cl)c1cccnc1	9	-24	2	/	i	1	1	-4
Cc1cccc(-c2nsc(SCC(=O)Nc3ccc4c(c3)OCO4)n2)c1	54	/	-19	/	i	1	6	0
COc1cccc(/C=C/C(=O)OC(C)C(=O)Nc2c(C)n(C)n(-c3ccccc3)c2=O)c1 (stereo unspecified)	4	/	1	15	i	-3	-4	3
COc1ccc(C(C(=O)NC2CCCC2)N(Cc2ccccc2)C(=O)CNC(=O)c2ccco2)cc1 (stereo unspecified)	8	14	2	-38	i	-6	0	-5
S=C1NC[C@H](c2ccccc2)N1CC1CCCCC1	6	-21	-8	0	i	5	-16	-4
COC(=O)c1ccccc1NC(=O)CN1CCC(n2nnc3cc(C(F)(F)F)ccc32)CC1	-7	-7	0	/	i	-4	2	0
Nc1ccc2c(c1)C(=O)c1ccccc1-2	-7	-15	/	-12	i	3	1	/
Cc1cccc(NC(=O)c2cc(-c3cccnc3)nc3c(C)cccc23)n1	-6	-8	-42	11	i	-2	-6	-34
Cc1nc(C)c(-c2csc(Nc3ccc(S(N)(=O)=O)cc3)n2)s1	/	9	5	16	i	4	-8	-8
O=C(NN=C(c1ccccc1)c1ccccn1)c1ccccc1	57	/	/	53	/	6	-6	/
O=C(CSc1nnnn1-c1ccc2c(c1)OCCO2)N1CCc2ccccc21	-17	-37	-5	/	i	0	-3	0
COc1cccc(N2CCN(C(=S)Nc3cccc(C)c3)CC2)c1	7	-20	-11	10	i	0	-1	-12
Brc1cnc2nc(SCc3nc4ccccc4[nH]3)[nH]c2c1	55	-27	1	8	i	2	0	8
CC(C)NS(=O)(=O)c1ccc(CCC(=O)N2CCOCC2)cc1	-5	-3	-5	-138	i	-3	4	-10
O=C(Nc1ccn(CCCNC2CCN(Cc3ccccc3)CC2)c(=O)n1)OCc1ccccc1	/	-7	/	13	/	-4	-1	/
O=c1c2cc(Br)ccc2[nH]c(=S)n1Cc1cccnc1	/	-11	1	-3	i	-2	0	-6
Cc1ccccc1NC(=S)NCCC(c1ccccc1)c1ccccc1	19	/	2	/	i	1	-2	-6
Cc1ccc(Cn2c(SCC(=O)N/N=C/c3ccc(C)o3)nc3ccccc32)cc1	20	-26	7	/	i	1	-3	-1
Cc1oc2ccc(NS(=O)(=O)c3ccc(F)cc3)cc2c1C(=O)O	3	-11	0	4	/	-4	-1	-3
O=C1CSC(=S)N1c1ccc(F)cc1	7	/	-7	/	i	/	/	-11
CCOC(=O)C1(CCCc2ccccc2)CCN(C(=O)[C@@H]2C[C@@H](C)NC(=S)N2)CC1	0	-32	-6	-3	i	-2	-5	3
COC(=O)Cn1c(=NC(=O)c2ccc(S(=O)(=O)N3CCc4ccccc4C3)cc2)sc2cc(OC)ccc21	/	/	1	8	i	0	-1	4
CC(=O)Nc1cccc(NC(=O)CSc2nc(=O)n(Cc3ccccn3)c3c2CCC3)c1	-12	1	/	0	i	-1	-1	/
COc1ccc(CNC(=O)[C@H](C)NC(=O)C2CCN(S(=O)(=O)c3ccc(C)cc3)CC2)cc1	3	-6	22	11	i	1	4	6

Looked up by structure from above (two):
SMILES	CSC inhib	Yeast UUG start	PABP FP inh	HIV Env fusion	Rce1 inhib	MT1-MMP act inh	MT1-MMP act inh RFP	eIF4H inh
O=C1CSC(=S)N1c1ccc(F)cc1	7	/	-7	/	i	/	/	-11
COC(=O)Cn1c(=NC(=O)c2ccc(S(=O)(=O)N3CCc4ccccc4C3)cc2)sc2cc(OC)ccc21	/	/	1	8	i	0	-1	4

Other structures.
SMILES	CSC inhib	Yeast UUG start	PABP FP inh	HIV Env fusion	Rce1 inhib	MT1-MMP act inh	MT1-MMP act inh RFP	eIF4H inh
O=C(Cc1cccs1)Nc1cccnc1	-2	-9	-3	/	i	-3	1	0
COc1cccc(C2/C(=C(/O)c3cnn(-c4ccccc4)c3C)C(=O)C(=O)N2CCN(C)C)c1 (stereo unspecified)	-13	-14	-2	/	i	2	6	-2
COC(=O)c1nn(-c2ccccc2)c(=O)cc1O	2	/	4	-2	i	0	5	2
O=C(N1CCN(c2ccccc2)CC1)C12CC3CC(CC(C3)C1)C2	0	16	-8	/	i	3	-6	0

An excerpt from above in order of SMILES length, ascending:
SMILES	CSC inhib	Yeast UUG start	PABP FP inh	HIV Env fusion	Rce1 inhib	MT1-MMP act inh	MT1-MMP act inh RFP	eIF4H inh
O=C(Cc1cccs1)Nc1cccnc1	-2	-9	-3	/	i	-3	1	0
O=C1CSC(=S)N1c1ccc(F)cc1	7	/	-7	/	i	/	/	-11
O=C(N1CCN(c2ccccc2)CC1)C12CC3CC(CC(C3)C1)C2	0	16	-8	/	i	3	-6	0
CC(=O)Nc1cccc(NC(=O)CSc2nc(=O)n(Cc3ccccn3)c3c2CCC3)c1	-12	1	/	0	i	-1	-1	/
CCOC(=O)C1(CCCc2ccccc2)CCN(C(=O)[C@@H]2C[C@@H](C)NC(=S)N2)CC1	0	-32	-6	-3	i	-2	-5	3
COC(=O)Cn1c(=NC(=O)c2ccc(S(=O)(=O)N3CCc4ccccc4C3)cc2)sc2cc(OC)ccc21	/	/	1	8	i	0	-1	4

Screens (PubChem BioAssay)
